Dynein transport = blocks dynein driven cargo transport along microtubules | 3617.4 mouse cells, GR-EGFP nuclear translocation imaging; test concentration mostly 20 µM; stimulated with dexamethasone, 1 µM; stronger effect = lower value | z-score, hits read low | actives 0.47% (n = 220,000) | AID 1381;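 active means plate z-score of nuclear minus cytoplasmic receptor signal below a set negative limit, without overly bright fluorescence or cell loss, cut at about -3.5 in these data, passing the limit was not always enough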;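 further: z-score of nuclear minus cytoplasmic ring GR-EGFP intensity difference per well; some compounds called inactive have numbers as strong as hits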
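Buffer or medium: tetracycline-free induction medium containing charcoal-stripped FBS / Reagent: dexamethasone agonist, 1.0 µM final, for 30 min / Technique: automated 10x imaging of fixed Hoechst-stained cells / Times: induction 48 h, compound 1 h, agonist 30 min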
M1AAP inhibition = malaria alanyl aminopeptidase activity blockers – biochemical, fluorogenic H-Leu-NHMec substrate, 1536-well (AID 1445). inhibition, % at 30 µM; hits with a dose series show IC50 in µM. actives 0.42% (n = 220,000). recombinant M1AAP, H-Leu-NHMec fluorogenic kinetic assay; higher % means a stronger effect;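 active means primary inhibition above the hit cutoff, then over 50% inhibition at one or more dose response concentrations, cut at about 23% in these data, passing the limit was not always enough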;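 further: plate controls were DMSO full reaction for no effect and no enzyme background for full effect; strong numbers were not always called active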
KOR beta-arrestin-1 = kappa opioid receptor blockers – cell-based, luminescence, uHTS (AID 1778); KOR beta-arrestin recruitment, luminescence, antagonist mode; higher % means a stronger effect; actives 0.091% (n = 290,000); one-dose inhibition, % at 10 µM; IC50 in µM for titrated hits; in the data active means inhibition above about 50%; further: strong numbers were not always called active
P. falciparum M17LAP = P. falciparum M17LAP inhibitors, primary screen, biochemical, fluorogenic H-Leu-NHMec substrate, 1536-well (AID 1619) | actives 0.38% (n = 220,000) | one-dose inhibition, % at 30 µM; IC50 in µM for titrated hits | recombinant M17LAP, H-Leu-NHMec fluorogenic kinetic assay; higher % means a stronger effect;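 active means compound inhibiting the enzyme by more than half at any dose during confirmatory dose-response retesting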;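 further: plate controls were full reaction with DMSO carrier for no effect and no enzyme background for full effect; strong numbers were not always called active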
KOR beta-arrestin-2 = KOR agonists, beta-arrestin recruitment, primary screen, cell-based, luminescence, uHTS (AID 1777). KOR beta-arrestin recruitment, luminescence; higher % means a stronger effect. one-dose activation, % at 10 µM; EC50 in µM for titrated hits. actives 0.02% (n = 280,000); in the data active means activation above about 50%, passing the limit was not always enough; further: a part of the inactive calls stands beside numbers as strong as those of hits
GPR55 activation = selective activators of receptor GPR55 – imaging, U2OS cells, beta-arrestin-GFP redistribution, primary screen (AID 1961). actives 0.048% (n = 290,000). one-dose activation, % at 10 µM; EC50 in µM for titrated hits. U2OS GPR55 beta-arrestin-GFP redistribution imaging; higher % means a stronger effect;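 active means activation above 40% with more than 50 cells counted in the well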;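 further: U2OS osteosarcoma cells stably expressing GPR55 and beta-arrestin-GFP; plate controls were DMSO negative control for no effect and LPI positive control for full effect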
AID2073 = inhibitors of Mint1-CaV2.2 protein interaction, biochemical, HTRF (AID 2073). actives 0.19% (n = 290,000). HTRF protein-protein interaction, Mint1-CaV2.2; higher % means a stronger effect. inhibition, % at 20 µM; hits with a dose series show IC50 in µM; in the data active means inhibition mostly above about 51%, no sharp cut-off; further: some results filed as inactive read as strong as hits
Dynein transport cytoplasmic EGFP = also measured in Dynein transport; calls as there; z-score; measured here: cytoplasmic GR-EGFP intensity; stronger effect = higher value
Dynein transport nuclear GR-EGFP = also measured in Dynein transport; calls as there; z-score; measured here: nuclear GR-EGFP intensity;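 lower value marks the stronger effect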
Dynein transport cell count = also measured in Dynein transport; calls as there; z-score; measured here: cell count per field
* hit, by the source's call; [ ] = dose if it differs, or a comment. A portion of the library (hit frequency here may not be typical).

CCCCCOc1ccc(/C=C/c2c([N+](=O)[O-])c(=O)n(C)c(=O)n2C)cc1 was read as KOR beta-arrestin-1 -11.6%, KOR beta-arrestin-2 -3.2%, GPR55 activation 0.0% and AID2073 2.1%.
O=C1/C(=C\c2cccnc2)CN(Cc2ccccc2)C/C1=C\c1cccnc1 was read as Dynein transport -3.59*, M1AAP inhibition -4.5%, KOR beta-arrestin-1 25.2%, P. falciparum M17LAP 1.5%, KOR beta-arrestin-2 7.2%, GPR55 activation 0.2%, AID2073 -5.8%, Dynein transport cytoplasmic EGFP 0.672*, Dynein transport nuclear GR-EGFP -2.16* and Dynein transport cell count -0.00204*.
`CCCCCCCCCCn1c2c(c(=N)c3c1CCC3)CCC2` gave Dynein transport 9.02, M1AAP inhibition 7.8%, KOR beta-arrestin-1 -23.8%, P. falciparum M17LAP 23.0%, KOR beta-arrestin-2 3.8%, GPR55 activation 15.5%, AID2073 12.0%, Dynein transport cytoplasmic EGFP 0.851, Dynein transport nuclear GR-EGFP 8.06 and Dynein transport cell count -7.16.
For N#Cc1cccc(NC(=O)COC(=O)c2ccccc2C(=O)c2ccc(Cl)c([N+](=O)[O-])c2)c1 the results were Dynein transport -0.407, M1AAP inhibition 16.1%, KOR beta-arrestin-1 28.9%, P. falciparum M17LAP 2.0%, KOR beta-arrestin-2 0.0%, GPR55 activation -0.2%, AID2073 -3.5%, Dynein transport cytoplasmic EGFP -0.326, Dynein transport nuclear GR-EGFP -0.496 and Dynein transport cell count 0.615.
O=C(CCl)N(c1ccccc1)c1ccccc1 was read as Dynein transport -4.51*, M1AAP inhibition -0.5%, KOR beta-arrestin-1 -5.5%, P. falciparum M17LAP -3.3%, KOR beta-arrestin-2 -4.0%, GPR55 activation 0.1%, AID2073 11.1%, Dynein transport cytoplasmic EGFP 1.31*, Dynein transport nuclear GR-EGFP -2.51* and Dynein transport cell count 0.422*.
`O=C(NCc1ccco1)c1nc2c(nnn2Cc2ccccc2Cl)c(=O)[nH]1` gave Dynein transport -0.987, M1AAP inhibition 8.4%, KOR beta-arrestin-1 -5.6%, P. falciparum M17LAP 28.6%, KOR beta-arrestin-2 -1.9%, GPR55 activation 0.5%, AID2073 9.8%, Dynein transport cytoplasmic EGFP -0.273, Dynein transport nuclear GR-EGFP -0.227 and Dynein transport cell count -0.146.
`CCOC(=O)Cc1csc(NS(=O)(=O)c2ccccc2)n1` gave Dynein transport 0.58, M1AAP inhibition 6.8%, KOR beta-arrestin-1 11.1%, P. falciparum M17LAP 20.2%, KOR beta-arrestin-2 0.1%, GPR55 activation 0.0%, AID2073 1.4%, Dynein transport cytoplasmic EGFP -0.206, Dynein transport nuclear GR-EGFP 0.626 and Dynein transport cell count 0.0516.
Screening O=C(NN=C1C2CC3CC(C2)CC1C3)c1ccncc1 returned Dynein transport -0.208, M1AAP inhibition 2.0%, KOR beta-arrestin-1 -19.4%, P. falciparum M17LAP 2.5%, KOR beta-arrestin-2 3.0%, GPR55 activation -0.2%, AID2073 13.5%, Dynein transport cytoplasmic EGFP -0.222, Dynein transport nuclear GR-EGFP -0.392 and Dynein transport cell count 0.272.
`COc1ccccc1NS(=O)(=O)c1cccc(-n2c(O)c(C=Nc3ccccc3C(=O)O)c3ccccc3c2=O)c1` gave Dynein transport 0.451, M1AAP inhibition 30.4µM*, KOR beta-arrestin-1 -7.8%, P. falciparum M17LAP 11.9%, KOR beta-arrestin-2 2.8%, GPR55 activation -0.1%, AID2073 29.7%, Dynein transport cytoplasmic EGFP -0.251, Dynein transport nuclear GR-EGFP 0.292 and Dynein transport cell count 0.479.
For CC[n+]1cc(C)ccc1/C=C/c1ccc(N(C)C)cc1 the results were KOR beta-arrestin-1 7.9%, KOR beta-arrestin-2 -2.0%, GPR55 activation -0.2% and AID2073 4.4%.
CCCCNC(=O)CSc1nc2ccccc2c(=O)n1CCNC(C)=O was read as Dynein transport -1.11, M1AAP inhibition -1.9%, KOR beta-arrestin-1 -3.2%, P. falciparum M17LAP -6.8%, KOR beta-arrestin-2 2.0%, GPR55 activation 0.2%, AID2073 3.4%, Dynein transport cytoplasmic EGFP -0.2, Dynein transport nuclear GR-EGFP -0.522 and Dynein transport cell count 0.87.
Screening C=CCSc1nc2ccccc2n1C(=O)/C=C/c1ccc(OC)c(OC)c1 returned Dynein transport -5.09*, M1AAP inhibition 4.1%, KOR beta-arrestin-1 -12.4%, P. falciparum M17LAP 7.0%, KOR beta-arrestin-2 5.7%, GPR55 activation 0.5%, AID2073 7.7%, Dynein transport cytoplasmic EGFP 0.595*, Dynein transport nuclear GR-EGFP -1.98* and Dynein transport cell count 0.827*.
Cc1ccc(CNC(=O)c2nnn(-c3cccc(C)c3)c2N)cc1 was read as Dynein transport -0.361, M1AAP inhibition -0.2%, KOR beta-arrestin-1 12.4%, P. falciparum M17LAP 8.9%, KOR beta-arrestin-2 -0.8%, GPR55 activation 0.0%, AID2073 40.3%, Dynein transport cytoplasmic EGFP -0.165, Dynein transport nuclear GR-EGFP 0.103 and Dynein transport cell count -0.36.
Screening O=c1oc2ccc(Br)cc2cc1S(=O)(=O)c1ccc(F)cc1 returned Dynein transport -0.301, M1AAP inhibition -0.3%, KOR beta-arrestin-1 19.1%, P. falciparum M17LAP -14.0%, KOR beta-arrestin-2 -3.2%, GPR55 activation -0.3%, AID2073 13.4%, Dynein transport cytoplasmic EGFP -0.229, Dynein transport nuclear GR-EGFP 0.0203 and Dynein transport cell count -0.145.
`CCOC(=O)N1CCN(S(=O)(=O)Cc2ccccc2)CC1` gave Dynein transport -2.2, M1AAP inhibition 2.5%, KOR beta-arrestin-1 -19.7%, P. falciparum M17LAP 1.4%, KOR beta-arrestin-2 6.8%, GPR55 activation -0.2%, AID2073 10.1%, Dynein transport cytoplasmic EGFP 9.23, Dynein transport nuclear GR-EGFP -0.121 and Dynein transport cell count -0.436.
`COc1cccc(-c2nnc3n2N=C(C(C)(C)C)CS3)c1` gave Dynein transport -1.19, M1AAP inhibition -0.5%, KOR beta-arrestin-1 2.4%, P. falciparum M17LAP 7.8%, KOR beta-arrestin-2 0.8%, GPR55 activation 0.2%, AID2073 4.0%, Dynein transport cytoplasmic EGFP -0.216, Dynein transport nuclear GR-EGFP -0.527 and Dynein transport cell count 0.345.
`CC(Oc1ccc(Br)cc1)c1nc2c3ccccc3nc(=S)n2[nH]1` (stereo not given) gave Dynein transport -0.86, M1AAP inhibition 0.3%, KOR beta-arrestin-1 61.7%, P. falciparum M17LAP 9.5%, KOR beta-arrestin-2 -9.7%, GPR55 activation 0.1%, AID2073 17.2%, Dynein transport cytoplasmic EGFP -0.212, Dynein transport nuclear GR-EGFP -0.371 and Dynein transport cell count 0.15.
Screening O=C(CNC(=O)OCc1ccccc1)Oc1cc2oc(=O)cc(-c3ccccc3)c2cc1Cl returned Dynein transport 0.423, M1AAP inhibition 7.0%, KOR beta-arrestin-1 -5.2%, P. falciparum M17LAP -4.2%, KOR beta-arrestin-2 -3.1%, GPR55 activation 0.2%, AID2073 39.2%, Dynein transport cytoplasmic EGFP -0.0971, Dynein transport nuclear GR-EGFP 0.102 and Dynein transport cell count -0.586.
`CC(=O)NCCNC(=O)c1ccc(CSc2nc3ccccc3s2)cc1` gave KOR beta-arrestin-1 -21.7%, KOR beta-arrestin-2 -1.5%, GPR55 activation -0.1% and AID2073 13.2%.
For COc1cc(OC)c(C2C(C(=O)N3CCOCC3)=C(C)NC3=C2C(=O)CC(C)(C)C3)cc1OC (stereo not given) the results were Dynein transport -0.222, M1AAP inhibition 16.9%, KOR beta-arrestin-1 -18.0%, P. falciparum M17LAP 9.5%, KOR beta-arrestin-2 -1.7%, GPR55 activation -0.1%, AID2073 0.6%, Dynein transport cytoplasmic EGFP -0.246, Dynein transport nuclear GR-EGFP 0.101 and Dynein transport cell count 0.388.
CCOc1ccccc1CNC(=O)Cn1nc(C)c2c(C)n(-c3ccc(C)cc3)nc2c1=O was read as KOR beta-arrestin-1 -36.1%, KOR beta-arrestin-2 -4.6%, GPR55 activation -0.1% and AID2073 20.3%.
`Cc1ccc(C(=O)Nc2ccccc2-c2ccccc2)cc1[N+](=O)[O-]` gave Dynein transport -0.539, M1AAP inhibition 6.9%, KOR beta-arrestin-1 1.5%, P. falciparum M17LAP 7.3%, KOR beta-arrestin-2 6.0%, GPR55 activation -0.3%, AID2073 3.9%, Dynein transport cytoplasmic EGFP -0.232, Dynein transport nuclear GR-EGFP -0.342 and Dynein transport cell count 0.41.
For COc1ccc(CCNc2ncnc3c2oc2ccccc23)cc1OC the results were Dynein transport -0.864, M1AAP inhibition -1.8%, KOR beta-arrestin-1 -4.4%, P. falciparum M17LAP -1.7%, KOR beta-arrestin-2 -3.4%, GPR55 activation -2.1%, AID2073 20.5%, Dynein transport cytoplasmic EGFP -0.191, Dynein transport nuclear GR-EGFP -0.347 and Dynein transport cell count 0.1.
Screening Cc1nc(SCC(=O)Nc2nc3ccccc3s2)c(C#N)c(C)c1C returned Dynein transport 0.0825, M1AAP inhibition 4.5%, KOR beta-arrestin-1 -14.7%, P. falciparum M17LAP 9.9%, KOR beta-arrestin-2 11.0%, GPR55 activation -0.3%, AID2073 14.5%, Dynein transport cytoplasmic EGFP 0.878, Dynein transport nuclear GR-EGFP 0.0375 and Dynein transport cell count 0.192.
Screening CCCCCCCn1c2c(c(=N)c3c1CCC3)CCCC2 returned Dynein transport 2.81, M1AAP inhibition 29.4%, KOR beta-arrestin-1 -14.7%[20 µM], P. falciparum M17LAP -0.8%, GPR55 activation -0.1%, AID2073 -10.1%, Dynein transport cytoplasmic EGFP 0.12, Dynein transport nuclear GR-EGFP 1.17 and Dynein transport cell count -2.3.
`CCCn1c(SCC(=O)Nc2nc3c(s2)CCCC3)nc2c1c(=O)n(C)c(=O)n2C` gave Dynein transport -0.167, M1AAP inhibition 2.1%, KOR beta-arrestin-1 -18.9%, P. falciparum M17LAP 0.6%, KOR beta-arrestin-2 -0.8%, GPR55 activation 0.2%, AID2073 -11.6%, Dynein transport cytoplasmic EGFP -0.133, Dynein transport nuclear GR-EGFP 0.354 and Dynein transport cell count -0.739.
For COc1ccc(Nc2ncnc3ccc(Br)cc23)cc1OC the results were KOR beta-arrestin-1 5.7%, KOR beta-arrestin-2 -3.0%, GPR55 activation -0.1% and AID2073 11.9%.
For COc1ccc(S(=O)(=O)Nc2ccccc2C(=O)Nc2nc(-c3ccc(F)cc3)cs2)cc1OC the results were Dynein transport 0.182, M1AAP inhibition 7.3%, KOR beta-arrestin-1 -221.9%, P. falciparum M17LAP 21.6%, KOR beta-arrestin-2 15.1%, GPR55 activation -0.3%, AID2073 27.5%, Dynein transport cytoplasmic EGFP -0.158, Dynein transport nuclear GR-EGFP 0.837 and Dynein transport cell count -1.28.

Bioassay records as filed in PubChem.
